# Bioassay records deposited in PubChem by ICCB-Longwood Screening Facility, Harvard Medical School.
# BasE inh: BasE siderophore biosynthesis inhibition | purified BasE, fluorescence polarization binding displacement | inhibition, % (test concentration not listed) | 0.1% of 84,000 active;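 active means both replicates above 25% with normal brightness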;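 further: 0% = negative plate control signal and 100% = positive plate control signal; stock transfer was 100 nL into about 30 µL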
# LANA-nucl inh: inhibitors of KSHV LANA binding to nucleosomes | FITC-LANA1-23 / chicken nucleosome fluorescence polarization; stronger effect = lower value | z-score (concentration not given with the values) | 0.3% of 51,000 active | AID 720717;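 active means both repeat wells score below -2 in polarization z-score versus plate sample wells, excluding overly bright wells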;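 further: 100 nL library stock added to about 30 µL; numbers are from one replicate; some results filed as inactive read as strong as hits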
#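 test system = FITC-LANA peptide and chicken nucleosomes | amount = 240 nM purified chicken nucleosomes (480 nM peptide binding sites), final | reagent = 50 nM FITC-LANA1-23 probe | medium = TEN-BT buffer, pH 7.5 | doses = single compound addition by pin transfer, 100 nL per well | timing = 10–45 min, room temperature | detection = fluorescence polarization | repeats = duplicate plates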
# Active calls of the source: *; · = no result given; & = joins results of further samples. Some of the compounds tested, so the mix of outcomes need not match the whole.
Structure	BasE inh	LANA-nucl inh
O=C(O)c1cnc(-c2ccccc2)nc1N1CCc2[nH]ncc2C1	-1.2	0.17
Cc1occc1C(=O)Nc1cnn(CCCC(=O)O)c1	1.4	-1.1
CC(NC(=O)c1ccc(Cl)cc1)c1ccncc1 (stereo not given)	1.9	-0.35
CC/C(=N\NC(N)=O)c1cc(F)ccc1O	3.0	·
COc1ccc(CNC(=O)NC(=O)c2ccccc2)cc1	0.8	-0.15
O=C(CCN1C(=O)C2C3C=CC(C3)C2C1=O)Nc1ccccc1 (stereo not given)	1.6	·
C=CCn1c(=S)sc2c(=O)n(Cc3ccc(Cl)cc3)cnc21	1.1	·
O=S(=O)(c1ccccc1)c1nnn2c1nc(N1CCc3ccccc31)c1sccc12	2.2	-1.5
Cc1nn(CCCC(=O)NC2CCCC(C)C2C)c(=O)c2nccn12 (stereo not given)	1.0	-1.6
COC(=O)C(Cc1c[nH]c2ccccc12)NS(=O)(=O)c1cccc2nonc12 (stereo not given)	0.5	·
O=C(CCc1cccs1)NC1=NCCS1	2.1	·
CN(C)S(=O)(=O)c1ccc(C(=O)Nc2nc3c(s2)CCc2ccccc2-3)cc1	0.9	·
Cc1cc(C)nc(NS(=O)(=O)c2ccc(NC(=O)CC3CCCC3)cc2)n1	0.0	·
COCCn1nnnc1C(c1ccncc1)N1CCCC1 (stereo not given)	5.1	-0.51
COc1ccc(C2=N/C(=C\c3ccc4c(c3)OCO4)C(=O)O2)cc1	-1.4	-2
C=CCn1c(C)c(C=C(C#N)C#N)c2ccccc21	3.7	-1.2
COc1cc2ncnc(NCc3cccc4c3OCO4)c2cc1OC	2.2	-0.22
CCOC(=O)C1CCN(Cn2c(O)c(N=NC(=S)Nc3cccc(OC)c3)c3ccccc32)CC1	0.7	-0.35
O=C(CCN1C(=O)c2ccccc2C1=O)Oc1ccc(Cl)cc1	-1.7	0.12
C=CCn1c(O)c(C=Nc2cccc(C)c2)c(=O)[nH]c1=S	6.1	-0.13
O=C1N(c2ccc3c(c2)OCO3)C(c2ccc3c(c2)OCO3)C1(F)F (stereo not given)	-0.1	·
Cc1cccc(N2CC(C(=O)Nc3ccc4c(c3)OCO4)CC2=O)c1C (stereo not given)	0.9	-0.65
CCN(CC)Cc1ccc(Nc2ccnc3cc(Cl)ccc23)cc1O	0.3	-0.37&0.0065
C=C(C)Cn1c(SCC(=O)O)nnc1-c1ccccc1	-8.3	·
Nc1cccc(-n2cccc2)c1	1.4	0.15
O=S(=O)(c1ccc(NC2CCN(Cc3ccccc3)CC2)nc1)N1CCCCC1	-1.3	·
O=S(=O)(c1cc(OCC(F)(F)F)ccc1OCC(F)(F)F)n1cccc1	-0.6	·
COC(=O)c1scc(C#N)c1N=CN(C)C	-1.1	·
CCOC(=O)C1CCN(C(=O)CNC(=O)Cn2c(C)cc3ccccc3c2=O)CC1	2.8	0.011
O=C1COc2ccc(Cl)cc2N1Cc1cc2c(cc1Cl)OCO2	0.0	-0.3
COC(=O)c1ccccc1NC(=O)Cc1noc2ccccc12	1.1	0.79
NS(=O)(=O)c1ccc(NC(=O)C2CC=CCC2C(=O)N2CCOCC2)cc1 (stereo not given)	2.0	·
O=C(O)c1ccc(CSc2n[nH]c(-c3ccco3)n2)cc1	5.3	0.23
Cc1cccc(-n2ncc3c(N4CCCC4)ncnc32)c1	0.1	-0.41
O=C(CSc1nc2c(cnn2-c2ccc(Cl)cc2)c(=O)[nH]1)Nc1ccc(F)cc1	0.6	-0.38
Cc1sc2nc(SCC(=O)N3CCCCC3)[nH]c(=O)c2c1C	1.8	-0.46
Cc1noc2ncnc(N3CCCC3CO)c12 (stereo not given)	2.0	·
O=C(O)COc1ccc(C(=O)NCc2ccccc2)cc1	-0.3	-0.32
CN1CCC(N(C)C(=S)NC2CCCCC2)CC1	1.1	0.35
CC(C)CCSc1nc2ccccc2n1CN1CCN(S(=O)(=O)c2ccc(Cl)cc2)CC1	0.5	·
CN(C)C(CN)Cc1ccccc1 (stereo not given)	3.4	·
CCOC(=O)c1c(C)sc2c1Nc1cc(Cl)ccc1S2	2.1	·
OC1CCC(C2CC3CCC2C3)CC1O (stereo not given)	2.0	-0.34
C/C=C/c1c(F)c(F)c(Oc2ccccc2N)c(F)c1F	0.0	·
CN(C)CCn1cc(C(=O)c2cc(F)ccc2O)cc1-c1nc2ccccc2c(=O)[nH]1	1.4	·
COC(=O)c1ccccc1S(=O)(=O)/C(C#N)=C/Nc1nc(C)cc(C)n1	3.6	·
N#CCSc1ccccc1NC(=O)CN1CCc2sccc2C1c1cccs1 (stereo not given)	-7.8	·
C=CCN(C(=O)c1ccc2c(c1)nnn2C)c1ccccc1	-0.7	-1.2
CC1CCc2cc(F)ccc2N1S(=O)(=O)c1ccc(NC(=O)COCC(=O)O)cc1 (stereo not given)	-3.0	1.9
O=C(CC(=O)NCc1ccccc1)NCc1ccccc1	2.5	·

# (next part)
Structure	BasE inh	LANA-nucl inh
O=C(Nc1ccccc1)NC1CC2CCC(C1)N2Cc1nnnn1Cc1ccc2c(c1)OCO2 (stereo not given)	2.7	0.47
Cc1sc2nc(C(C)Sc3nnc(-c4ccc5c(c4)OCO5)o3)[nH]c(=O)c2c1C (stereo not given)	-1.8	·
NC(=Nc1ccc(Br)cc1)c1ccccc1	-0.2	-0.61
Cc1ccc(S(=O)(=O)NC2(C(=O)O)CCCCC2)cc1	0.2	0.67
CN1CCN(S(=O)(=O)c2cccc(C(=O)C(C#N)c3ccccn3)c2)CC1 (stereo not given)	-0.8	·
CC(=O)N(C)Cc1nc2ccccc2n1Cc1ccccc1	1.8	-0.28
COc1ccc(O)c(C=NCC(C)N=Cc2cc(OC)ccc2O)c1 (stereo not given)	-0.6	·
Cc1ccc(CSc2ncnc3c2nnn3Cc2ccccc2)cc1	-1.0	1
CC1CCCN(C(=O)COC(=O)c2ccc(N(C)C)cc2)C1 (stereo not given)	-1.9	·
CC1(C)CC(=O)C(C(=S)Nc2ccccc2)C(=O)C1	-1.9	·
COc1cccc2sc(Nc3ccc(F)cc3)nc12	-0.7	0.45
Cc1ccc(NC(=O)CC2S/C(=N\N=C\c3cccc(O)c3)NC2=O)cc1Cl (stereo not given)	-0.1	-0.54
CC1CC(C)CN(C(=O)c2ccc3c(c2)N(Cc2ccc(F)cc2)C(=O)c2ccccc2S3=O)C1 (stereo not given)	-5.0	1.6
CN(Cc1cccnc1)C(=O)CNS(=O)(=O)c1cccc(C(F)(F)F)c1	2.8	·
O=C(Nc1cccc(-c2nc3ccccc3[nH]2)c1)c1cccc(NC(=O)c2ccco2)c1	0.0	-0.85
Cc1ccc(NC(=O)/C(C#N)=C/c2ccc[nH]2)c(C)c1	1.4	-0.35
COc1ccc(NCN2C(=O)c3ccccc3C2=O)cc1	2.0	0.16
CC(=O)OC1CC(C)N(C(=O)c2ccccc2)c2ccc(C)cc21 (stereo not given)	-0.5	-1.3
N#Cc1ccc(NC(=O)Cc2ccc3c(c2)OCCO3)cc1	0.9	·
Cc1ccccc1-n1nnnc1SCC(=O)N(Cc1cccs1)c1ccc2c(c1)OCCO2	0.9	·
CN(Cc1ccccc1)Cn1c(=S)oc2ccc(Cl)cc21	1.5	·
Cc1ccn2nc(C(=O)OCc3cc(=O)oc4cc5c(cc34)CCC5)nc2n1	-1.1	·
CN(C)c1cccc(C(=O)N2CCOCC2)c1	1.9	-0.74
CN1C(=O)/C(=C\c2ccccc2C(F)(F)F)SC1=S	1.4	·
CCOc1ccc(C(=O)NCC(=O)NCC2CCCCC2)cc1OCC	1.3	·

# Three of the compounds above, with two lines to a compound:
# Values in the order – BasE inh | LANA-nucl inh
Cc1ccc(S(=O)(=O)NC2(C(=O)O)CCCCC2)cc1
  0.2 | 0.67
C/C=C/c1c(F)c(F)c(Oc2ccccc2N)c(F)c1F
  0.0 | ·
O=C(CSc1nc2c(cnn2-c2ccc(Cl)cc2)c(=O)[nH]1)Nc1ccc(F)cc1
  0.6 | -0.38

# Carrying on:
Structure	BasE inh	LANA-nucl inh
O=C(Cn1c(C(=O)OCCO)cc2ccccc21)c1ccccc1	-0.3	0.29
COC(=O)c1ccc(COC(=O)c2cccnc2N)o1	-1.0	·
CC1=CC(=C(C#N)C#N)C=C(C)N1c1ccc(I)cc1	-4.6	·
CNC1(C#N)CCCCC1	5.1	·
Cc1cc(C)nc(SCC(=O)OCc2cccc(S(=O)(=O)N3CCOCC3)c2)n1	0.0	·
CCCC(=O)Nc1c2c(nn1-c1ccccc1)CSC2	4.8	-0.28
COc1cccc(CNC(=O)[C@@H](NS(=O)(=O)c2ccccc2)C(C)C)c1	1.9	·
CCn1c(C)c(CCC(=O)N2CCCCCC2)c(=O)n2nc(-c3ccccc3OC)cc12	-2.3	0.14
COc1ccc2oc(C(=O)OCC(=O)c3ccc(F)cc3)c(C)c2c1	-3.1	·
COc1ccc(S(=O)(=O)N2CCC(C(=O)Nc3ccccc3C(F)(F)F)CC2)cc1C	0.5	-1.1
CCOc1ccc(S(=O)(=O)N2CCN(C(=O)CNC(=O)c3cccs3)CC2)cc1	0.0	·
CC(N)c1ccccc1OC(F)F (stereo not given)	-15	0.3
O=C1NCC(O)=C1C=Nc1ccccc1O	0.9	·
O=C(Nc1ccc2c(c1)OCCO2)c1ccc(Br)o1	-1.5	0.71
O=C(Cc1c[nH]c2ccccc12)NCC1CCN(c2ccc(S(=O)(=O)N3CCCC3)cc2)CC1	2.9	0.96
O=C1CCC(C(=O)OCC(=O)Nc2cccc(Oc3ccccc3)c2)=NN1	-0.1	·
CCC(CC)C(=O)Nc1nnc(C(C)(C)C)s1	-0.1	-0.29
Cn1nnnc1SCC(=O)N1CCNC1=O	-0.3	·
CN(CC(=O)NCc1ccco1)S(=O)(=O)c1ccc2c(c1)c(=O)n(C)c(=O)n2C	-1.8	-0.041
Cc1cc(C)c(OCC(O)Cn2cc(/C=N/O)c3ccccc32)c(C)c1 (stereo not given)	1.2	-0.038
Cc1ccc(NC(=O)CN2C(=O)CSCC2=O)cc1	0.0	-0.46
CCCCn1c(SC(C)C(N)=O)nc2cc(S(N)(=O)=O)ccc21 (stereo not given)	-2.1	·
COc1ccc(N(CCC#N)S(=O)(=O)c2cccc3nsnc23)cc1	1.7	0.097
FC(F)(F)c1cc(Oc2ccc(Cl)cc2)c2cc(Cl)ccc2n1	-4.7	·
O=C(NCc1ccco1)C1CCC(C(=O)NCc2ccco2)CC1 (stereo not given)	1.6	-0.068
CCOC(=O)C1C(=O)NC(N2CCc3ccccc32)=NC1c1ccccc1 (stereo not given)	0.4	-0.029
Cc1ccc(C)c(S(N)(=O)=O)c1	0.4	·
CC1(C)CC(=O)C(C=NCc2ccc3c(c2)OCO3)=C(O)C1	0.4	0.13
CCCCn1nnc(NC(=O)COc2ccc(Cl)c(C)c2)n1	-3.0	0.071
Cc1ccc2c(CC(=O)NNc3c(F)c(F)c(F)c(F)c3F)coc2c1	1.3	·
CCNS(=O)(=O)c1csc(C(N)=O)c1	1.5	·
CC1CCN(C(=O)C2CC(c3ccccc3F)=NO2)CC1 (stereo not given)	-1.1	-1.4
Cc1c(-c2ccnn2S(C)(=O)=O)sc2ccc(Cl)cc12	0.3	·
NNC(=O)CS(=O)(=O)Cc1ccc(-c2csnn2)cc1	0.4	·
CC1(C)CC(=O)C2=C(C1)OC(N)=C(C#N)C21C(=O)N(CO)c2ccccc21 (stereo not given)	1.1	·
CN(c1ccccc1)n1c(-c2ccccc2)nc2ccccc2c1=O	-1.4	0.32
CSc1cccc(NC(=O)CSc2ncn(-c3ccccc3)n2)c1	-4.2	-0.7
CCC(=O)c1cn(CC(N)=O)c2ccccc12	4.5	-0.2
N=c1c2c3c(sc2ncn1CCCn1ccnc1)CCCCC3	0.5	-0.87
CC(C)(C)c1cc2ncnc(NNC(=O)c3cccs3)c2s1	-0.1	-0.13
COC(=O)c1c(NC(=S)NCCn2cc(Br)cn2)sc2c1CCC2	6.7	-0.66
CCCCOc1ccccc1N1C(=O)CC(N2CCN(C(=O)OCC)CC2)C1=O (stereo not given)	1.5	-0.85
Nc1ccc(-c2ccc(C(=O)O)s2)cn1	2.0	-1.6
COc1ccc(Cl)cc1S(=O)(=O)N1CCCC1	2.1	-0.27
Cc1n[nH]c(C)c1S(=O)(=O)Nc1ccccc1C(=O)Nc1ccc2c(c1)OCO2	-1.2	·
CCCn1c(NC(=O)CN2C(=O)C3C4C=CC(C4)C3C2=O)nc2ccccc21 (stereo not given)	1.0	·
O=C(Nc1ccc(S(=O)(=O)NC2=NCCCCC2)cc1)C1COc2ccccc2O1 (stereo not given)	0.0	·

# Five records drawn at random from the list so far, as already listed:
Structure	BasE inh	LANA-nucl inh
CC1CCN(C(=O)C2CC(c3ccccc3F)=NO2)CC1 (stereo not given)	-1.1	-1.4
NNC(=O)CS(=O)(=O)Cc1ccc(-c2csnn2)cc1	0.4	·
CCCCn1nnc(NC(=O)COc2ccc(Cl)c(C)c2)n1	-3.0	0.071
CSc1cccc(NC(=O)CSc2ncn(-c3ccccc3)n2)c1	-4.2	-0.7
Cc1c(-c2ccnn2S(C)(=O)=O)sc2ccc(Cl)cc12	0.3	·
